Screening results: PubChem, several laboratories
UCH37 inh – blocks the human deubiquitinase UCH37; Q9Y5K5; purified proteasome/UCH37, Ub-AMC cleavage fluorescence; inhibition, % (no concentration beside the values); 0.33% of 330,000 active; AID 588478;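 active = mean of two replicates above 20%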;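 also: 0% = compound-free wells with enzyme and 100% = wells lacking proteasome; stock transfer was 100 nL into about 20 µL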
Target sequence (Q9Y5K5 whole entry, looked up): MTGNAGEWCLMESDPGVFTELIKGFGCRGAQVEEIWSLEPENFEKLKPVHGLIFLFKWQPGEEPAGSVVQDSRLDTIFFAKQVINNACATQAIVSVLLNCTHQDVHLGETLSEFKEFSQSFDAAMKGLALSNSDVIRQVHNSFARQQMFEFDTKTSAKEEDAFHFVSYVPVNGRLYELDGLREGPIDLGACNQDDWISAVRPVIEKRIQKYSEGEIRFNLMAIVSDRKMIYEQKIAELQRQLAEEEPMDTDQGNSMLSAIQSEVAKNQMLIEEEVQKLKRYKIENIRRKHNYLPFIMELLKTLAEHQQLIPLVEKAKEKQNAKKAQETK
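Schedule: 30 min plus 25 min, room temperature / Material: human UCH37 within purified proteasomes / Technique: AMC fluorescence intensity at 355/460 nm / Buffer or medium: pH 7.4 Tris-HCl (50 mM) with ovalbumin, ATP-MgCl2, DTT / Controls: wells without proteasome as full block, compound-free enzyme plus substrate as uninhibited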
Bfl-1 A1 inh – inhibitors of the anti-apoptotic protein A1, read as caspase activation. MEF A1-2A-BIM cells, Caspase-Glo 3/7 luminescence, 3 h; percent of clofoctol response, vehicle zero. caspase activation, % (no concentration beside the values). 0.066% of 330,000 active;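 active = over half of replicate activation scores above 10%, or exactly half above 10 with the replicate mean above 10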;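 also: wells of about 30 µL received 50 nL stock; many hits fall short of the cut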
FGF22 binding – binders of recombinant human FGF22 by thermal shift; SYPRO orange fluorescence; percent of sucrose octasulfate shift, DMSO zero; Q9HCT0; 1.5% of 340,000 active; calls only at 9.99 µM;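 active = melting point raised past a set limit in the mean and every replicate; three in four hits are not shown here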
Target sequence (Q9HCT0 whole entry, looked up): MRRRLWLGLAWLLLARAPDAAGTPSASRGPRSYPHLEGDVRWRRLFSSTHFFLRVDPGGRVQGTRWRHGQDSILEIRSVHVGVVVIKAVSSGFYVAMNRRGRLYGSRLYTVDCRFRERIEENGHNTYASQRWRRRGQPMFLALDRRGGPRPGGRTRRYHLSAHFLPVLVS
Beta apoptosis – blocks beta cell apoptosis; INS-1E cytokine-induced death, ATP luminescence, 48 h; percent of positive-control rescue, neutral wells zero; protection from apoptosis, % (no concentration beside the values); 0.8% of 300,000 active; AID 435005;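 active = all replicates at 75% or more, or half of them and the mean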;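 also: 0% = cytokine-treated negative control wells and 100% = positive control rescue; higher means more ATP so stronger rescue from cytokine killing; wells of about 40 µL received 100 nL stock; the first replicate is given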
T cruzi repl – blocks replication of Trypanosoma cruzi. T. cruzi beta-gal in NIH3T3, luminescence, 90 h. inhibition, % (concentration not given with the values). 1.4% of 300,000 active. AID 1885;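 active = mean inhibition across valid replicates above about 55%, limit read from the data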;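 also: signal also drops with host cell toxicity which is not excluded here; 0% = plate median of DMSO wells and 100% = zero luminescence signal; higher percent means less beta-gal luminescence so fewer parasites; stock transfer was 50 nL into about 50 µL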
MLL AF4-AF9 inh – MLL-AF4/AF9 protein interaction inhibition; P42568; AlphaScreen, biotin-AF4 peptide binding to FLAG-AF9; inhibition, % at 10 µM; 0.47% of 350,000 active; AID 651704;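 active = every replicate reaching a set inhibition limit, whatever the replicate mean, cut at about 25% in these data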;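 also: 0% = plate neutral control median and 100% = total signal loss; the record names both 10 and 1 µM as test concentration; the first replicate is given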
Target sequence (P42568 whole entry, looked up): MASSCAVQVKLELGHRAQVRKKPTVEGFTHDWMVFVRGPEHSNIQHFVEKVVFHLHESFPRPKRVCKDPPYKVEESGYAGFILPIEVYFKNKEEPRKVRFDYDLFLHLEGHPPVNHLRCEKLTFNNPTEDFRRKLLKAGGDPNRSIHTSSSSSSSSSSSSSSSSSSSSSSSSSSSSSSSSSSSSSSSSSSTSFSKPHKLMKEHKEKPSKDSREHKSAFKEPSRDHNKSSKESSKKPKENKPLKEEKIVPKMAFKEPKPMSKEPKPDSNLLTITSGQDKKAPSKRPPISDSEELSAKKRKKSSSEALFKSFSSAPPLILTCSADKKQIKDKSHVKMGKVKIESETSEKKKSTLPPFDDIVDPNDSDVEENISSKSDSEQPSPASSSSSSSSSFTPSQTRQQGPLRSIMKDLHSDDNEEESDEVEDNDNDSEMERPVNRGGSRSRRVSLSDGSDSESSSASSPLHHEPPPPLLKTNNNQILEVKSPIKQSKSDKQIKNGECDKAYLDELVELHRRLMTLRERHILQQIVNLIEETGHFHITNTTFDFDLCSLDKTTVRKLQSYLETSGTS
Ecoli growth – inhibitors of Escherichia coli growth; OD600 absorbance (concentration not given with the values); AID 1053175; 0.21% of 330,000 active; OD600, 23 h; stronger effect = lower value;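 active = OD600 absorbance below the run mean of sample wells minus 3.6 SD, in any replicate, cut at about 0.56 in these data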;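 also: stock transfer was 300 nL into about 60 µL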
Ecoli rRNA inh – inhibits bacterial ribosomal RNA function over humanized ribosomes | E. coli WT GFP vs humanized-ribosome RFP mutants, fluorescence, 24 h; stronger effect = lower value; DMSO median 0, no signal -100 | GFP signal change (wild-type ribosome), % (no concentration beside the values) | 1.6% of 350,000 active | AID 720706;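 active = significant combined selectivity score with lowered wild-type GFP, culture density cut under 30%, mutant RFP and density less affected; inactive = any of these conditions unmet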; also: one replicate is shown; some compounds called inactive have numbers as strong as hits
Ecoli rRNA inh OD600 – also measured in Ecoli rRNA inh; calls as there; OD600 change, %; measured here: OD600 growth;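 optical density of the mix in the first replicate; 0 = DMSO median and -100 = no signal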
Ecoli rRNA inh RFP – second read-out of Ecoli rRNA inh, no call of its own (marks repeat the call); RFP signal change, %; measured here: RFP humanized mutant strains;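 first replicate; 0 = DMSO median and -100 = no signal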
Active calls of the source: *; i = inactive; / = no result given.

SMILES | UCH37 inh | Bfl-1 A1 inh | FGF22 binding | Beta apoptosis | T cruzi repl | MLL AF4-AF9 inh | Ecoli growth | Ecoli rRNA inh | Ecoli rRNA inh OD600 | Ecoli rRNA inh RFP
CCCCOc1ccc(Br)cc1CSC(=N)N | -0.1 | / | i | / | 17.4 | 8.9 | 0.572 | -27.2 | -58.8 | 16.2
N#Cc1ccc(NCC(=O)Nc2ccc3c(c2)OCCO3)cc1 | 3.6 | 1.0 | / | 2.6 | 11.8 | -1.3 | 0.698 | -6.0 | -8.3 | -1.8
CN(C)CCCNC(=S)NCc1ccc(Cl)cc1 | 1.6 | 0.7 | / | -4.4 | 11.7 | / | 0.692 | / | / | /
CC(C)(C)NC(=O)COC(=O)c1cc(Br)ccc1Cl | 1.1 | -0.3 | i | -1.4 | -28.6 | -2.2 | 0.669 | -4.5 | -10.5 | -1.1
Cc1cccc(S(=O)(=O)Nc2nc3ccccc3nc2Nc2ccc3c(c2)OCO3)c1 | -1.3 | -0.8 | i | 19.0 | -18.6 | 0.4 | 0.709 | -0.4 | 5.8 | -3.9
Cc1cc(C)nc(N(C#N)Cc2ccccc2)n1 | 0.7 | 0.6 | / | -2.2 | 6.3 | / | 0.669 | / | / | /
O=C(c1n[nH]c2ccccc12)N1CCN(S(=O)(=O)c2ccc(Cl)cc2)CC1 | 0.7 | 0.0 | i | 4.9 | / | -1.6 | 0.657 | -1.2 | -20.4 | 4.8
CNC(=O)c1sc2nc(-c3ccc(OC)cc3)cn2c1C | 5.9 | -1.5 | i | -0.6 | 6.9 | -8.1 | 0.704 | -7.2 | -27.8 | -11.1
Cc1cccc(N2C(=O)N3[C@H](c4ccc(F)cc4)[C@@H]4C(=O)N(C5CCCCC5)C(=O)[C@@H]4[C@]3(Cc3ccccc3)C2=O)c1 | 5.6 | 0.1 | i | 3.8 | 2.3 | 4.1 | / | 10.9 | -3.9 | -4.6
Cc1cc(Oc2ccc(C#N)cc2)nc(N2CCOCC2)n1 | 2.2 | -1.2 | / | -7.0 | 16.5 | / | 0.721 | / | / | /
Cc1ccc(NCc2nnc(SCc3ccc(C#N)cc3)n2Cc2ccco2)c(C)c1 | 2.3 | 0.9 | / | -11.1 | 15.5 | / | 0.653 | / | / | /
COc1ccc(C2/C(=C(/O)c3ccc(C)cc3)C(=O)C(=O)N2c2ccccn2)cc1 (stereo not given) | 8.3 | 0.4 | i | / | -7.5 | 3.5 | 0.664 | 1.1 | -2.2 | -6.7
CCC(=O)Nc1ccc2c(c1)Cc1cc(NC(=O)CC)ccc1-2 | 2.4 | 1.3 | i | -7.0 | -2.4 | -3.2 | 0.706 | 5.7 | 1.4 | 0.4
CCCCCCC1CC(=O)NC(=S)N1 (stereo not given) | -2.2 | -0.5 | i | -9.8 | -5.6 | -1.6 | 0.728 | 7.5 | 14.2 | -0.5
Cc1ccc2[nH]c(=O)c3cc(C(=O)N4CCN(C(=O)c5ccco5)CC4)sc3c2c1 | -119.4 | -0.8 | i | 5.2 | 2.7 | -1.1 | 0.785 | -1.0 | 0.3 | 0.6
c1ccc(CNc2nc(N3CCOCC3)nc(N3CCOCC3)n2)cc1 | 2.5 | 0.7 | / | -6.1 | -2.0 | / | 0.738 | / | / | /
CC(=O)c1ccc(NC(=O)Cn2nc(C)c([N+](=O)[O-])c2C)cc1 | -0.3 | 0.2 | i | 1.2 | 6.5 | -2.3 | 0.701 | -0.7 | -1.0 | -2.5
Cc1cc(NS(=O)(=O)c2ccc(Nc3nc(-c4sc(NC(=O)c5ccccc5)nc4C)cs3)cc2)no1 | -74.2 | -6.8 | / | 26.5 | 2.8 | / | 0.655 | / | / | /
CN1CC(=O)N(CC(=O)Nc2ccc(Br)cc2F)C1=O | 1.9 | -0.3 | i | -4.4 | -13.7 | -1.4 | 0.728 | -1.9 | -4.1 | -0.4
CCC(=O)N(c1nnc(SCC(=O)Nc2ccccc2Cl)s1)C1CC1 | 0.5 | 2.1 | i | -3.2 | / | -1.3 | 0.66 | -4.4 | -13.6 | -0.4
CN(Cc1ccc(Cl)cc1)C(=O)COC(=O)CSc1ccc([N+](=O)[O-])cc1 | 2.5 | -0.5 | i | -3.5 | / | 1.2 | 0.661 | -16.6 | -8.2 | 1.6
COC(=O)C1(C)NC(c2cccc(C)c2)C2C(=O)N(c3ccc(F)cc3)C(=O)C21 (stereo not given) | 4.4 | 0.1 | i | -6.9 | -5.7 | -1.8 | 0.718 | 11.4 | 7.9 | -0.1
COCCNC(=O)C(c1ccc(C)o1)N(C(=O)c1snc(C(N)=O)c1N)c1ccc(C)cc1 (stereo not given) | -46.8 | 0.1 | / | -4.7 | -7.5 | / | 0.74 | / | / | /
CC(=O)c1sc(NC(=O)C2(F)C(F)(F)C(F)(F)C(F)(F)C(F)(F)C2(F)F)nc1C | 9.5 | -0.1 | / | 108.6* | -10.8 | -33.0 | 0.661 | -45.0 | -68.0 | -20.5
CSCCC(NC(=O)c1occc1C)C(=O)O (stereo not given) | 6.9 | -0.4 | / | 2.7 | -25.2 | / | 0.672 | / | / | /
COc1cccc(C2C3=C(N=C4SCC(=O)N42)c2ccccc2CC3)c1OC (stereo not given) | 1.4 | -0.7 | / | 8.7 | 12.5 | / | 0.755 | / | / | /
CCOC(=O)[C@@H]1[C@H]2COc3cc(OC)ccc3[C@@H]2N2C(=O)N(c3ccc(OC)cc3)C(=O)[C@@]12C | 3.1 | 0.6 | i | 2.2 | / | / | / | 10.0 | 2.1 | -1.3
CCC(=O)N1N=C(c2ccc(C)cc2)CC1c1ccco1 (stereo not given) | 1.7 | -1.2 | i | -1.5 | 5.4 | 1.1 | 0.641 | -15.6 | -15.5 | 1.8
COc1ccc(OC)c(NC(=O)CC2SC(=NCc3ccccc3)NC2=O)c1 (stereo not given) | 4.7 | 0.0 | i | -11.3 | -0.8 | 0.9 | 0.683 | 10.0 | 6.6 | 2.0
COc1ccc(N2C(=O)C3CCCN3C2c2ccccc2OC)cc1 (stereo not given) | 1.1 | -0.2 | i | -2.4 | -1.3 | -2.0 | 0.775 | 8.5 | 7.1 | -0.3
CC(=O)Nc1ccccc1C(=O)C(=O)Nc1ccc(C)c(C)c1 | 5.9 | 0.5 | i | -4.7 | -5.8 | -1.4 | 0.684 | 13.8 | 8.7 | 4.0
O=[N+]([O-])c1ccc(N=Nc2ncc[nH]2)cc1 | 11.6 | 1.4 | i | 54.5 | -25.5 | 0.1 | 0.669 | 8.9 | 16.0 | 1.1
CCNC(=O)C1CCCN1S(=O)(=O)c1ccc2ccccc2c1 (stereo not given) | 0.2 | 0.7 | i | -5.1 | 4.8 | 0.7 | 0.725 | 1.9 | 3.1 | -1.9
Cc1ccc(S(=O)(=O)N(C)c2ccc(OCC(=O)Nc3nc4c(ccc5ccccc54)s3)cc2)cc1 | -0.1 | 0.0 | / | 7.0 | 50.9 | / | 0.707 | / | / | /
CC(C)CNC(=O)C1C2C=CC(C2)C1C(=O)O (stereo not given) | 5.1 | 0.6 | / | -3.4 | -17.8 | / | 0.66 | / | / | /
CN(C)CCCNC(=O)C1CCNCC1 | 1.3 | -0.2 | / | -2.2 | -11.3 | / | 0.703 | / | / | /
O=C(CCc1nc2ccccc2c(=O)[nH]1)N1CCN(c2ccccc2Cl)CC1 | / | 0.7 | i | 3.9 | / | -1.9 | / | 12.3 | 18.1 | 2.7
COc1cccc(NC(=O)C(NCCc2ccc(S(N)(=O)=O)cc2)c2ccccc2)c1 (stereo not given) | 1.3 | 1.1 | i | 11.1 | 8.6 | 1.2 | 0.695 | 3.2 | 4.1 | 0.8
CCNC(=O)CC1C(=O)N(c2ccc(F)cc2)C(=O)N1CCC(C)C (stereo not given) | 4.1 | -0.4 | / | -2.7 | -15.6 | / | 0.7 | / | / | /
CCCn1c(N)c(Br)c(=O)[nH]c1=O | 0.5 | 0.0 | i | -4.0 | -10.4 | 0.3 | 0.662 | 4.8 | 16.6 | 4.2
CCn1c(SCC(=O)N/N=C/c2ccccc2OCC(=O)O)nnc1-c1ccc(C(C)(C)C)cc1 | / | -0.7 | i | -1.1 | -9.1 | -1.8 | / | 6.3 | 3.0 | -3.3
Cc1ccc(-n2[nH]c(C)c(/C=N/n3c(C)nc4ccccc4c3=O)c2=O)cc1 | / | -5.0 | / | 22.0 | -25.5 | / | / | 11.3 | -6.4 | -0.3
C[C@]12CC[C@@H]3c4cc(O)c(O)cc4CC[C@H]3[C@@H]1CC[C@@H]2O | 2.8 | -1.0 | i | -2.8 | -3.4 | 3.2 | / | / | / | /
Cc1onc(-c2c(F)cccc2Cl)c1C(=O)N1C=CC(C(F)(F)Cl)=NCC1 | 6.9 | 0.3 | / | -1.9 | -1.2 | / | 0.704 | / | / | /
CC1CN(C2CCN(S(=O)(=O)c3ccc4ccccc4c3)CC2)CC(C)O1 (stereo not given) | 1.6 | -0.7 | / | 0.9 | 9.5 | / | 0.666 | / | / | /
COc1ccc(C2(CNC(=O)c3ccccc3)CCCC2)cc1OC | 2.0 | 0.3 | i | -2.6 | 11.6 | 0.6 | 0.628 | 1.3 | 5.1 | 0.6
CN(C)S(=O)(=O)c1cccc(NC(=O)c2ccncc2)c1 | 2.9 | 0.6 | i | -2.1 | -2.5 | -6.1 | 0.666 | 6.3 | 21.8 | 8.0
C=CCN(C(=O)CNC(=O)c1cccs1)C(C(=O)NC1CCCCC1)c1cccnc1 (stereo not given) | 5.3 | 0.1 | i | -5.9 | -2.1 | -13.6 | 0.671 | 4.5 | 26.6 | -1.5
COc1ccccc1[C@@H]1C(c2ccccc2)=NN(c2ccc(Br)cc2)[C@H]1C(=O)N1CCOC1=O | -380.7 | / | i | / | / | -0.2 | 0.702 | 16.1 | 27.1 | 0.3
CCSc1nnc(NC(=O)COc2ccc3ccccc3c2)s1 | -0.5 | -0.2 | / | 1.6 | -6.8 | / | 0.701 | / | / | /
CSCCC(NS(=O)(=O)c1ccc2ccccc2c1)C(=O)OCC(=O)c1ccc(C(C)C)cc1 (stereo not given) | -0.5 | -0.8 | / | 1.4 | 1.6 | / | 0.645 | / | / | /
Cc1ccc(S(=O)(=O)N2CCC(C(=O)OC(C)C(=O)NCc3ccc4c(c3)OCO4)CC2)cc1 (stereo not given) | 3.6 | 1.7 | / | -3.1 | -9.5 | / | 0.71 | / | / | /

3 entries from above, comma-delimited.
canonical_smiles,UCH37 inh,Bfl-1 A1 inh,FGF22 binding,Beta apoptosis,T cruzi repl,MLL AF4-AF9 inh,Ecoli growth,Ecoli rRNA inh,Ecoli rRNA inh OD600,Ecoli rRNA inh RFP
Cc1cc(Oc2ccc(C#N)cc2)nc(N2CCOCC2)n1,2.2,-1.2,/,-7.0,16.5,/,0.721,/,/,/
Cc1ccc(NCc2nnc(SCc3ccc(C#N)cc3)n2Cc2ccco2)c(C)c1,2.3,0.9,/,-11.1,15.5,/,0.653,/,/,/
COc1ccc(C2/C(=C(/O)c3ccc(C)cc3)C(=O)C(=O)N2c2ccccn2)cc1 (stereo not given),8.3,0.4,i,/,-7.5,3.5,0.664,1.1,-2.2,-6.7

An excerpt (hit frequency here may not be typical).
